# Source: PubChem (PCMD)
# Biofilm kill mix – mixtures killing C. albicans biofilm. C. albicans biofilm persisters + clotrimazole, fluorescence viability; primary screen in compound mixtures of four per well. inhibition, % at 7.6 µM. actives 0.02% (n = 120,000);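 active means inhibition above 30.3% in the primary screen of four-compound pools, then above 30% when the compound was retested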;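 further: compounds exposed to preformed 24 h biofilms for 48 h; the number belongs to the whole pool; some results filed as inactive read as strong as hits; inactives centre near 12; 0% = biofilm with clotrimazole alone and 100% = kill control; retested singly at about 60 µM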
#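 Assay system: C. albicans biofilms / Medium: RPMI/MOPS medium, pH 7.0 / Schedule: biofilm formation 24 h, compound exposure 48 h, 37 °C / Measured by: Alamar Blue fluorescence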
# An asterisk follows results filed as active.
SMILES,Biofilm kill mix
Nc1c(C(=O)NCc2ccc3c(c2)OCO3)nnn1Cc1ccc(Br)cc1,25.1
COc1ccc(N(C(C)C(=O)NN=C2CCCC2)S(C)(=O)=O)cc1 (stereo not given),13.6
O=C(c1ccc2c(c1)N(Cc1ccc(F)cc1)C(=O)c1ccccc1S2(=O)=O)N1CCN(c2ccccn2)CC1,15.1
Cc1ccc2nc(N(CCCN(C)C)C(=O)CCc3ccccc3)sc2c1,15.3
Cn1cccc1CC(=O)N/N=C\c1ccccc1,21.0
N#C/C(=C\c1cccnc1)C(=O)NC1CCCCC1,13.8
CCCC(=O)N1CCN(c2ccc(NC(=O)c3cccs3)cc2)CC1,9.5
COc1ccc(NC(=O)CCS(=O)(=O)c2cccc3nonc23)cc1,5.0
COc1ccc(CN(C(=O)Cn2nnc(-c3ccc(C)o3)n2)C(C(=O)NCC2CCCO2)c2ccco2)cc1 (stereo not given),7.5
O=C(O)c1[nH]c2ccc([N+](=O)[O-])cc2c1-c1ccccc1,21.6

# Brought forward from above: 2 compounds; new compounds follow.
SMILES,Biofilm kill mix
COc1ccc(CN(C(=O)Cn2nnc(-c3ccc(C)o3)n2)C(C(=O)NCC2CCCO2)c2ccco2)cc1 (stereo not given),7.5
O=C(O)c1[nH]c2ccc([N+](=O)[O-])cc2c1-c1ccccc1,21.6
CCOC(=O)c1nn(-c2ccc(Cl)cc2)cc1O,10.4
COc1ccc(CC(=O)NCc2nnc(SCC(=O)Nc3ccccc3)n2C)cc1,15.1
Clc1ccc2c(N/N=C/c3ccc(Br)cc3)ccnc2c1,-1.8
CCN1CCN(C(=O)c2ccc(OC)c(S(=O)(=O)Nc3ccc(C)cc3)c2)CC1,5.3
Cc1csc(=Nc2cccnc2)n1Cc1ccco1,14.3
CCCNC(=O)c1onc(CSc2ccccn2)c1C(=O)NCCC,6.9
COc1ccc2[nH]c(=O)c(CN(C(=O)c3ccco3)C(C)C)cc2c1,14.5
Cc1ccc(N2C(=O)SC(Cc3ccccc3)C2=O)cc1 (stereo not given),28.0
O=C(N/N=C/c1ccc(N2CCOCC2)cc1)C1COc2ccccc2O1 (stereo not given),-4.9
COC(=O)c1sc2nc(SCc3ccccc3C#N)n(N)c(=O)c2c1C,11.1
O=C(O)c1cccnc1SCc1cn2cc(Br)ccc2n1,6.7
CN1CCN(CC(=O)Nc2ccccc2Oc2ccccc2)CC1,17.5
CCn1c(Cc2ccccc2)nnc1SCc1cccc(C(=O)O)c1,11.1
CNC(=O)c1cc(Nc2nnc(-c3ccc(O)cc3)c3ccccc23)ccc1OC,3.0
O=C(Nc1cccn2ncnc12)C(F)(F)F,16.7
COc1ccc([N+](=O)[O-])cc1NC(=O)CSc1nncn1-c1ccccc1,18.2
Nc1ccc(C(=O)N/N=C\C=C\c2ccc([N+](=O)[O-])cc2)cc1,4.9
OCCN(Cc1ccccc1)C(=S)NC1CCCCC1,15.6
O=C(c1ccccc1)c1c[nH]c2cc3c(cc2c1=O)OCCO3,11.9
Cc1ccc(NC(=O)c2ccc(NCc3ccc(F)cc3)nc2)cc1,23.2
CCn1cc(CN2CCCC(C(=O)c3ccc(-c4ccccc4)c(F)c3)C2)cn1 (stereo not given),21.1
CCOC(=O)c1[nH]c2cc(OC)c(OC)cc2c1NC(=O)CCN1CCSCC1,-12.3
CC(C)c1cc(N=NC(N)=O)cc(C(C)C)c1O,-0.3
Cc1ccc2nc(-c3ccc(-c4ccccn4)s3)cn2c1,2.7
CCOC(=O)C1CCN(c2ccc(C(N)=O)cc2[N+](=O)[O-])CC1,14.4
N=c1n(CCCOc2ccc(Br)cc2)c2ccccc2n1CC(N)=O,15.4
Cc1ccc(NC(=O)CSc2nnc(-c3cccnc3)n2-c2ccc(C)cc2)cc1,8.8
O=C(Nc1ccccc1)C1=C[C@@H](c2ccc(Br)cc2)C[C@@H](OCCCCO)O1,17.4
CC(C)(C)NC(=O)COC(=O)c1ccccc1C(=O)c1ccccc1,-12.1
CCCCCC(=O)Nc1cccc(C2=NOC3(C2)C[C@@H](C(N)=O)N(C(=O)c2ccc(Cl)cc2)C3)c1 (stereo not given in full),19.9
COc1cc(OC)cc(C(=O)NCC(=O)OCC(=O)c2cc(OC)ccc2OC)c1,9.8
CC(C)CNC(=O)N1c2ccccc2Sc2ccccc21,15.2
Cc1ccc(S(=O)(=O)NCC2CCC(C(=O)NCCCOC(C)C)CC2)cc1 (stereo not given),19.8
CSc1ccccc1NC(=O)CSc1nncs1,8.6
CCO[C@H]1OC(C(=O)Nc2ccccc2)=C[C@@H](c2ccc(Br)cc2)[C@@H]1CCCO,18.2
O=C(N/N=C/c1c[nH]c2ccccc12)c1cc2ccccc2o1,19.9
CC(C)Nc1nc(NC(N)=S)nc(NC(C)(C)C)n1,21.4
Cc1ccc(NC(=O)c2ccc([N+](=O)[O-])cc2Cl)nc1,11.0
CC1CCc2c(nc3sc4c(c3c2N)CCCC4)C1 (stereo not given),4.3
COc1cc(C)ccc1S(=O)(=O)N1CCCCCC1,26.3

# Reprinted from the part before: 5 compounds, then new ones.
SMILES,Biofilm kill mix
O=C(N/N=C/c1c[nH]c2ccccc12)c1cc2ccccc2o1,19.9
CC(C)Nc1nc(NC(N)=S)nc(NC(C)(C)C)n1,21.4
Cc1ccc(NC(=O)c2ccc([N+](=O)[O-])cc2Cl)nc1,11.0
CC1CCc2c(nc3sc4c(c3c2N)CCCC4)C1 (stereo not given),4.3
COc1cc(C)ccc1S(=O)(=O)N1CCCCCC1,26.3
O=C(COc1cccc([N+](=O)[O-])c1)N/N=C/c1ccco1,16.6
COC(=O)c1sc(C(C)(C)C)cc1CSc1ccccc1,24.7
COC(=O)C1c2ccccc2-c2ccccc21,14.2
COc1ccc(F)cc1C(=O)C1CCCN(Cc2cn(C)c3ccccc23)C1 (stereo not given),27.9
O=C(CSc1nc2ccccc2c(=O)n1-c1ccccc1)N1CCCc2ccccc21,-4.6
CCN(CC)C(=O)Cn1cc(C(=O)C(=O)NCCCn2ccnc2)c2ccccc21,12.7
O=C(COC(=O)Cc1c[nH]c2ccccc12)NC1CCCCC1,5.9
Clc1ncn(CCOc2ccccc2)c1Cl,7.2
COc1ccc(CCN(C(=O)C(F)(F)F)C(C(=O)NC2CCCCC2)c2cccs2)cc1 (stereo not given),15.1
CC(C)CCN1CCN(CC#Cc2ccccc2)CC1CCO (stereo not given),23.9
O=C(NCC1CCCO1)C1c2ccccc2Oc2ccccc21 (stereo not given),26.3
COc1ccc(N2C(=O)C(CC(=O)Nc3ccc(F)cc3)N(CCc3ccc(OC)c(OC)c3)C2=O)cc1 (stereo not given),15.5
COc1ccc(Oc2ccc(C(F)(F)F)cc2N)cc1,21.4
CCn1cc(S(=O)(=O)Nc2ccccc2C(F)(F)F)cn1,15.0
Cn1c(SCC(=O)O)nnc1-c1ccc(NC(=O)c2ccc(Cl)c(Cl)c2)cc1,13.0
O=C(Nc1ccc2c(c1)CCC2)c1ccc(F)c(S(=O)(=O)N2CCOCC2)c1,15.5
CN(Cc1ccccc1)C(=O)COC(=O)c1ccccc1Nc1ccccc1,14.1
Cc1ccccc1Nc1nc(N)nc(CSCC(=O)Nc2cccc(Br)c2)n1,9.8
Cn1nc(C(F)(F)F)c(-c2ccc(Br)cc2)c1NC(=O)CSCC(=O)O,11.6
Cc1c(C)n(Cc2ccccc2)c2ccc(C(=O)OCCCN(C)C)cc12,1.3
Cc1cccc(C)c1NC(=O)C1c2ccccc2Oc2ccccc21,-6.8
Cc1ccc(C2C(C#N)=C(N)N(c3cccnc3)C3=C2C(=O)CCC3)s1 (stereo not given),24.6
Cc1ccccc1NC(=O)Nc1ccc(C(F)(F)F)cc1,15.9
COCCCNC(=O)C(=O)NC1CCCCCC1,4.9
CCC(C)(C)NC(=O)Nc1cc(Cl)ccc1OC,11.1
O=c1oc(-c2ccc([N+](=O)[O-])cc2)nc2ccc(O)cc12,17.0
Nc1cc(=O)n(Cc2ccccc2)c(=O)n1-c1ccc(Cl)cc1,28.9
Cc1ccc(-n2nnc(-c3nccn3C)n2)cc1,15.3
Cc1ccc(N=Nc2ccc(C)cc2NC(=O)Nc2ccccc2F)cc1,8.1
CC(C)(C)c1ccc(NC(=O)C(=O)C2C(=O)Nc3ccccc32)cc1 (stereo not given),8.9

# Some of these compounds in order of length of the SMILES, descending.
SMILES,Biofilm kill mix
CC(C)(C)c1ccc(NC(=O)C(=O)C2C(=O)Nc3ccccc32)cc1 (stereo not given),8.9
Cc1ccccc1NC(=O)Nc1ccc(C(F)(F)F)cc1,15.9
COCCCNC(=O)C(=O)NC1CCCCCC1,4.9

# (next part)
SMILES,Biofilm kill mix
O=C(NCc1ccco1)C(c1ccccc1)N(C(=O)Cc1cccs1)c1ccccc1 (stereo not given),6.6
COC(=O)c1ccc(NC(=O)C(=O)N2CCN(C(=S)NCCc3ccccc3)CC2)cc1,16.1
COc1ccc(/C=N/Nc2nc(=O)[nH]nc2C)cc1[N+](=O)[O-],10.2
Nc1nc(Nc2ccccc2Cl)cc(=O)[nH]1,18.9
CCc1ccc(NC(=O)C(=O)N/N=C(\C)CC(=O)NCCOC)cc1,9.1
Cn1c(NNC(=O)c2ccccc2F)cc(=O)n(C)c1=O,21.6
CCNC(=O)NC(=O)C(C)OC(=O)Cc1coc2cc3c(cc12)CCC3 (stereo not given),7.0
CCN(CC)c1cc(Cl)nc(N)n1,-15.4
CC(C)(C)N(NC(=O)OCc1ccccc1)C(=O)c1ccccc1Cl,18.7
Cc1ccc(Nc2n[nH]c(C)c2[N+](=O)[O-])cc1,20.1
CCOC(=O)c1[nH]ncc1CN1CCCC(C(=O)c2cc(Cl)ccc2OC)C1 (stereo not given),9.6
C#CCOCCOCCOCCNc1nc(N2CCN(C(=O)C([C@@H](C)CC)n3cc(C(N)Cc4ccc(O)cc4)nn3)CC2)nc(N2CCN(C(=O)[C@H](CCC(=O)O)n3cc(C(N)Cc4ccc(O)cc4)nn3)CC2)n1 (stereo not given in full),20.4
O=C(O)c1[nH]c2ccc(Br)cc2c1CCN1C(=O)c2cccc([N+](=O)[O-])c2C1=O,19.5
CC(=O)c1ccc(C(=O)N2CCc3c([nH]c4ccccc34)C2c2cccc(C)n2)s1 (stereo not given),24.0
CCN(CC)C(=O)C1CCCN(c2ccc([N+](=O)[O-])cc2/C=N/NC(=O)c2ccccc2)C1 (stereo not given),15.7
O=C(NCCCCCCNC(=O)OCCO)OCCO,13.6
Cc1ccc(NC(=O)Cn2c(CCC(=O)O)ccc2-c2cccs2)cc1Cl,7.6
O=S(=O)(c1cccc(-c2nnc3n2CCCCC3)c1)N1CCOCC1,10.2
CC(=O)Nc1ccc(NC(=S)NC(=O)c2ccc([N+](=O)[O-])cc2)cc1,5.9
CCO[C@H]1OC(C(=O)NC2CC2)=C[C@@H](c2c[nH]c3ccccc23)[C@@H]1CCCO,51.9
CC1CN(C(=O)CCN2C(=O)c3ccccc3C2=O)CC(C)O1 (stereo not given),10.1
Cc1ccc(C2(c3noc(CN4CCOCC4)n3)CCCC2)cc1,7.8
Cc1cccc(C)c1NC(=O)C[n+]1cc(-c2ccccc2)n2c1CCC2,22.2
CSCCC(NC(=O)c1cccc(S(=O)(=O)N2CCOCC2)c1)C(=O)Nc1cccc(C)c1 (stereo not given),16.5
CCC/C=N/NC(=O)CNC(=O)c1ccccc1Cl,-7.8
CC(C)(C)NCC(O)COc1ccccc1C(C)(C)C (stereo not given),-2.9
COCCn1nnnc1C(CC(C)C)N1CCN(c2ccccc2)CC1 (stereo not given),13.1
Nc1nnc(-c2cccc([N+](=O)[O-])c2)o1,9.5
CCCn1c(S(=O)(=O)O)nc2ccccc21,18.7
CC(=O)NC(=C(Cl)Cl)S(=O)(=O)c1ccccc1,8.2
O=C(NN=C1C2CC3CC1CC(Cl)(C3)C2)c1ccccn1,29.3
Cc1nnsc1SCCNC(=O)Nc1ccc(Cl)cc1,22.3
COC(=O)c1ccccc1NC(=O)/C=C/c1ccco1,8.2
CC(=O)Nc1ccc(SC[C@H](CC(C)C)N2CCN(CC(C)C)CCC2=O)cc1,17.4
CSc1ccc(/C=N/N2CCN(Cc3ccc(C)cc3C)CC2)cc1,2.8
O=c1[nH]c(N/N=C/c2cc3c(cc2[N+](=O)[O-])OCO3)nc2ccccc12,16.0
CS(=O)(=O)c1ccc(C(=O)Nc2cc(S(C)(=O)=O)ccc2Cl)cc1,2.8
O=C(CSc1ccccc1)N(c1ccc(Br)cc1)c1nccs1,9.9
CN(C)CC(O)CN(c1ccccc1)c1ccccc1 (stereo not given),14.4
CCOc1ccc(C(=O)NCc2ccccc2OC)cc1,16.0
Fc1cccc(CN2CCN(Cc3nc(-c4cnccn4)no3)CC2)c1,4.8
O=C(Nc1cc(N2CCCCC2)ncn1)c1ccccc1,0.4
Cc1cc(N/C=C/C(=O)c2cccs2)ccc1F,-7.1
O=[N+]([O-])c1ccc2nc(CN3CCCCC3)[nH]c2c1,0.6
Cc1ccc(NC(=O)CCn2c(=O)[nH]c3ccsc3c2=O)cc1,-4.1
O=C(COC(=O)c1ccc(Cl)c([N+](=O)[O-])c1)Nc1ccccc1OC(F)F,19.5
CN(C)S(=O)(=O)c1ccc(C(=O)NCc2ccccn2)cc1,-2.8
O=C(O)Cc1coc2cc3c(cc12)CCC3,12.4
CC(=O)c1ccc(N2CCN(c3ccc(S(=O)(=O)NCCN(C)C)cc3[N+](=O)[O-])CC2)cc1,20.6
O=C(Nc1ccc2nc3ccccc3nc2c1)c1ccccc1,5.2

# (listing goes on)
SMILES,Biofilm kill mix
CC(=O)C1=C(O)C(=O)N(c2ccc(O)cc2)C1c1ccc([N+](=O)[O-])cc1 (stereo not given),-8.7
COc1ccc(N(C(=O)c2ccncc2)S(=O)(=O)c2cccs2)cc1,9.3
CCc1ccc(NC(=S)N2CCCC(C(F)(F)F)C2)cc1 (stereo not given),10.5
C(#CC1CCCC1)c1ccc2c(c1)COc1c3ccccc3nn1-2,10.5
O=C(Nc1ccc(N2CCCCC2)cc1)c1ccc(F)cc1F,13.3
CCOc1ccc2ccccc2c1/C=N/NC(=O)CNC(=O)C(c1ccccc1)c1ccccc1,21.6
CSC(=NC#N)N1CCN(c2ccc([N+](=O)[O-])cc2)CC1,-1.9

# Only part of the results is shown, so the mix of outcomes need not match the whole.
